High-throughput results (PubChem BioAssay)
GALR2 agonist – agonists of human galanin receptor 2 (GALR2) | O43603 | GALR2-expressing cells, agonist activation read-out | activation, %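 (tested at 5 µM)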 | 0.48% of 140,000 active | AID 803;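 active means above mean plus 3 SD of all compounds, about 5% in these data, not always enough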;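 further: 0% = vehicle buffer wells and 100% = reference agonist at full effect; tested in CHO reporter cells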
Target sequence (O43603 whole entry, looked up): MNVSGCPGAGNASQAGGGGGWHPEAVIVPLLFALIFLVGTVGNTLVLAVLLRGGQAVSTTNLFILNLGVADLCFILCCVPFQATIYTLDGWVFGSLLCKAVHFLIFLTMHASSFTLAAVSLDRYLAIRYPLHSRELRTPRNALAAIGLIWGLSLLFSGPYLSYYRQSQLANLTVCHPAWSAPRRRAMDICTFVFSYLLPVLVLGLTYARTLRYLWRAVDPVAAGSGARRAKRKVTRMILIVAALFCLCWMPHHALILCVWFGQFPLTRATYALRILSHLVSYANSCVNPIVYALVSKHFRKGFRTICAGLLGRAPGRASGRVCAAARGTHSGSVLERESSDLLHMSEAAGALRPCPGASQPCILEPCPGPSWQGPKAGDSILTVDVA
Insulin prom inh – TRM-6 insulin promoter activity inhibition | inhibition, % at 2 µM | AID 1273 | 0.9% of 130,000 active | TRM-6 cells (human fetal islet line), insulin promoter-eGFP reporter, imaging; reporter expression induced with tamoxifen;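 active means inhibition above the mean plus 3 SD, with well images judged a real hit on visual review, cut at about 60% in these data, passing the limit was not always enough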
HSV replic up – HSV replication enhancement; HSV replication augmentation in cells, fold increase; maximum fold increase; 0.005% of 220,000 active; AID 1956;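 active means peak rise of 1.5-fold or more in the series; tested in PC3 cells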;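 further: first round at 10 µM; read as green reporter fluorescence; hits show the peak of a series up to 25 µM; 1 = signal of infected wells without compound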
PKD1 kinase inh – blocks activity of human protein kinase D1; 0.056% of 200,000 active; PKD1 kinase fluorescence polarization assay; Q15139; inhibition, %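 (about 10 µM by stock and volumes)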;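 active means inhibition of 50% or more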;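 further: controls were vehicle for no effect and a reference inhibitor for full effect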
RGS16-Gao HTS – modulates binding between human RGS16 and Galphao; binding response (% of control), % at 10 µM; AID 1441; 0.38% of 220,000 active; bead-based flow cytometry RGS16-Galphao binding, fluorescence; actives lie on both sides;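 active means below 25% or above 175%, edge rows of some plates excepted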;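 further: Galphao activated by GDP with aluminum fluoride before binding; 100% = wells without compound and 0% = beads without RGS; some results beyond the cut were filed as inactive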
Target sequence (O15492 whole entry, looked up): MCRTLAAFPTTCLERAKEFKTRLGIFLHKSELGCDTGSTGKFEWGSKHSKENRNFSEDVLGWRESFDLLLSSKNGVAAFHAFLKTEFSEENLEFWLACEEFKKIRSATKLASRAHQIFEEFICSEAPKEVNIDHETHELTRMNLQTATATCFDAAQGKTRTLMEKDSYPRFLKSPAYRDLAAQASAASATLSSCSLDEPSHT
Target sequence (P09471 whole entry, looked up): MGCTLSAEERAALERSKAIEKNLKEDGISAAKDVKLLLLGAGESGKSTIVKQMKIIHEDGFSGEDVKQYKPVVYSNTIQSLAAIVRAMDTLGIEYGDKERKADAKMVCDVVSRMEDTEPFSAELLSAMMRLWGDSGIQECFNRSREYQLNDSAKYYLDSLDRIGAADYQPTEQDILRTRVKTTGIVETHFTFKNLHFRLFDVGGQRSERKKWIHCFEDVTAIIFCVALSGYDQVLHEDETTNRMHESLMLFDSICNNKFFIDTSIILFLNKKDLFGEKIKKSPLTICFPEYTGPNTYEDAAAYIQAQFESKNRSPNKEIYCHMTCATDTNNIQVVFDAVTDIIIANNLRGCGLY
Insulin prom inh cell count – further read-out of Insulin prom inh, marked with its call; normalized cell count, %; measured here: cell count, toxicity; reference of the scale not given here;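 cells exposed to compound for 48 h; stained nuclei by imaging scaled within each plate; lower means fewer cells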
HSV replic up primary fold – also measured in HSV replic up; calls as there; fold increase; compound at 10 µM; measured here: primary screen fold increase 10 uM; tested in PC3 cells;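 GFP signal in the first replicate; 1 = infected wells without compound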
The depositor's hits bear a star; i = inactive; x = not tested or not shown; [ ] = remark or other dose. An unsorted share of the library; overall some 1.1% were active at least once.

The first five entries (preview)
SMILES | GALR2 agonist | Insulin prom inh | Insulin prom inh cell count | HSV replic up | HSV replic up primary fold | PKD1 kinase inh | RGS16-Gao HTS
COc1ccc(NC(=O)/C=C2\SC(=O)NC2=O)cc1 | x | x | x | i | 0.95 | 4 | 98
CC(C)CNC(=S)Nc1ccccc1F | -1.4 | 19 | 93 | i | 1.1 | 1 | 53
COc1ccc(NS(=O)(=O)c2cc(NC(=O)C3CC3)ccc2N2CCCCC2)cc1 | x | x | x | i | 0.71 | -2 | 97
Cc1ccc(-c2noc(C3CCCN(C(=O)c4c(F)cccc4F)C3)n2)cc1 (stereo unspecified) | -1.4 | x | x | i | 1.1 | 2 | 110
CON(C)c1nc(OCCNC(=O)COc2ccc(Cl)cc2C)nc(N(C)C)n1 | -3.1 | x | x | i | 0.92 | -17 | 101

Results, from the start:
SMILES | GALR2 agonist | Insulin prom inh | Insulin prom inh cell count | HSV replic up | HSV replic up primary fold | PKD1 kinase inh | RGS16-Gao HTS
COc1ccc(NC(=O)/C=C2\SC(=O)NC2=O)cc1 | x | x | x | i | 0.95 | 4 | 98
CC(C)CNC(=S)Nc1ccccc1F | -1.4 | 19 | 93 | i | 1.1 | 1 | 53
COc1ccc(NS(=O)(=O)c2cc(NC(=O)C3CC3)ccc2N2CCCCC2)cc1 | x | x | x | i | 0.71 | -2 | 97
Cc1ccc(-c2noc(C3CCCN(C(=O)c4c(F)cccc4F)C3)n2)cc1 (stereo unspecified) | -1.4 | x | x | i | 1.1 | 2 | 110
CON(C)c1nc(OCCNC(=O)COc2ccc(Cl)cc2C)nc(N(C)C)n1 | -3.1 | x | x | i | 0.92 | -17 | 101
O=C(CNC(=O)C1CCCCC1)OCn1nnc2ccccc2c1=O | x | x | x | i | 1.1 | -1 | 99
Cc1[nH]nc(N2CCCCC2)c1[N+](=O)[O-] | -0.8 | -11 | 152 | i | 0.81 | -3 | 101
CCCn1nc(NC(=O)c2cccs2)c2cc3cc(OC)ccc3nc21 | 9.5 | x | x | i | 0.94 | 6 | 106
O=C1N(Cc2cccc(Cl)c2)C[C@@H]2C[C@@H](c3ccsc3)N3CCC[C@@]123 | x | x | x | i | 1.1 | -9 | 103
CC(=O)NC(C1C(=O)CC(C)(C)CC1=O)(C(F)(F)F)C(F)(F)F | 0.5 | x | x | i | 0.78 | -2 | 101
Cc1ccc2nsnc2c1NC(=O)CCc1ccccc1 | -1.2 | 31 | 75 | x | x | -1 | 108
O=C(c1ccccc1F)N(NC(=O)C(O)(c1ccccc1)c1ccccc1)c1ccccc1 | -0.7 | x | x | i | 1 | 1 | 104
COc1cc(/C=C(/NC(C)=O)C(=O)O)cc(Cl)c1OCc1ccc(Br)cc1 | x | x | x | i | 1.1 | x | 101
O=C(NCc1cccs1)c1cnc(Cl)c(Cl)c1 | x | 5 | 97 | i | 1.1 | -4 | 111
Nc1nc(SCC(=O)N2CCCC2)[nH]c(=O)c1NC(=O)c1cccs1 | x | x | x | i | 0.99 | x | 100
O=S1(=O)CC(O)C(Nc2ccc(Cl)cc2)C1 (stereo unspecified) | -1.5 | 40 | 88 | i | 0.94 | 1 | 110
COc1ccc(-n2cnnc2SCC(=O)Nc2cc(C)on2)cc1 | x | 39 | 125 | i | 0.99 | 3 | 103
O=C(Nc1cccc2ncccc12)c1cccnc1 | 0.4 | -19 | 84 | i | 0.94 | -8 | x
Cc1cccc(N=Nc2cn[nH]c2-c2ccco2)c1 | x | -44 | 64 | i | 0.97 | 0 | 94
O=S(=O)(Nc1ccc(Cl)c(C(F)(F)F)c1)c1cnc[nH]1 | -0.4 | x | x | i | 0.8 | 2 | 96
Cc1cc(Cl)c(OCCCn2cncn2)c(Br)c1 | -1.5 | 58 | 137 | i | 0.86 | -5 | 100
O=C1c2ccccc2-c2c1cccc2C(=O)N1CCN(C(=O)c2ccco2)CC1 | -0.4 | -70 | 113 | i | 0.89 | -6 | 99
C=CCn1c(=N)n(CC(=O)c2cccc([N+](=O)[O-])c2)c2ccccc21 | x | x | x | i | 0.85 | -11 | 102
CCOC(=O)c1sc(Nc2nc3cc4c(cc3s2)OCO4)cc1C | -1.1 | x | x | i | 0.85 | -5 | 938*[activator]
C=CCOC(=O)C1=C[C@H](c2cn(C(C)=O)c3ccccc23)C[C@H](OCc2ccc(CO)cc2)O1 | x | x | x | i | 0.73 | -1 | 98
O=C(CCc1nc2ccccc2[nH]1)NC1CCCCC1 | -0.1 | x | x | i | 0.99 | -8 | 102
C/C=C\C(=O)Nc1cccc(C2=NOC3(C2)C[C@@H](C(N)=O)N(C(=O)C2(C)CC2)C3)c1 (stereo partly specified) | x | x | x | i | 0.92 | x | 100
CC(C)c1ccc(/C=N/Nc2ccc(C(=O)O)cc2)cc1 | 0.5 | -81 | 100 | i | 0.99 | -2 | 112
COc1cc(NC(=O)COC(C)=O)cc(OC)c1OC | x | x | x | i | 1.2 | 16 | 90
CN1CCN(S(=O)(=O)c2ccc(NC(=S)NC(=O)c3ccccc3)cc2)CC1 | -1.8 | 47 | 35 | i | 0.9 | -1 | 97

Pulled by structure from the list above (four):
SMILES | GALR2 agonist | Insulin prom inh | Insulin prom inh cell count | HSV replic up | HSV replic up primary fold | PKD1 kinase inh | RGS16-Gao HTS
Cc1cccc(N=Nc2cn[nH]c2-c2ccco2)c1 | x | -44 | 64 | i | 0.97 | 0 | 94
O=S1(=O)CC(O)C(Nc2ccc(Cl)cc2)C1 (stereo unspecified) | -1.5 | 40 | 88 | i | 0.94 | 1 | 110
Cc1cc(Cl)c(OCCCn2cncn2)c(Br)c1 | -1.5 | 58 | 137 | i | 0.86 | -5 | 100
C=CCOC(=O)C1=C[C@H](c2cn(C(C)=O)c3ccccc23)C[C@H](OCc2ccc(CO)cc2)O1 | x | x | x | i | 0.73 | -1 | 98

Other structures:
SMILES | GALR2 agonist | Insulin prom inh | Insulin prom inh cell count | HSV replic up | HSV replic up primary fold | PKD1 kinase inh | RGS16-Gao HTS
Cc1csc2ncc(C(=O)NCc3ccccn3)c(=O)n12 | 0.2 | x | x | i | 0.95 | -7 | 106
COc1ccc(CCNC(=O)C(=O)NCc2ccccn2)cc1 | x | x | x | i | 0.99 | -5 | 94
CC(=O)c1ccc(NC(=O)/C=C/c2ccc(C)cc2)cc1 | -1.4 | 4 | 96 | i | 0.99 | -15 | 109
c1ccc(CN2CCN(CCCNc3ccc4nnc(-c5ccccc5)n4n3)CC2)cc1 | -0.7 | x | x | i | 0.78 | -4 | 113
Cc1ccc(Cn2c(SCC(C)C)nc3c2c(=O)[nH]c(=O)n3C)cc1 | -1.3 | -24 | 123 | i | 0.94 | 3 | 94
CC(=O)Nc1ccc(OCCOc2ccc([N+](=O)[O-])cc2)cc1 | x | x | x | i | 0.96 | x | 99
CNc1ccc(Oc2nc([N+](=O)[O-])nn2C)cc1 | x | x | x | i | 0.89 | 0 | 92
CC(C)(C)NS(=O)(=O)c1ccc(NC(=O)c2cc(-c3ccccc3)nc3ccccc23)cc1 | -2.2 | -65 | 106 | i | 0.83 | 3 | 106
C=CCSc1nnc(-c2sc(-c3ccccc3)nc2C)n1C | -3.2 | -23 | 134 | i | 0.74 | 4 | 105
CCOC(=O)C1(Cc2ccccc2C(F)(F)F)CCN(CCCn2cccn2)CC1 | x | x | x | i | 1 | -6 | 100
Cc1ccccc1-c1nnc(SCC(=O)NCc2ccc3c(c2)OCO3)n1C | -2.4 | -46 | 107 | i | 0.98 | 0 | 107
CC(C)=CCCC(C)N(C=O)C(C)CCC=C(C)C (stereo unspecified) | -0.9 | 46 | 33 | i | 0.98 | -8 | x
CN(C)C(=O)CSCc1c(Cl)cccc1Cl | -1.8 | -34 | 81 | i | 0.87 | 0 | 106
N#Cc1cccc(NC(=O)N2CCC(c3nc4c(nnn4Cc4cccc(Cl)c4)c(=O)[nH]3)CC2)c1 | -3.6 | -27 | 65 | i | 1 | -5 | 99
O=C1C(=C(O)c2ccccc2)C(=O)c2ccccc21 | -2.1 | x | x | i | 3.3 | 3 | 93
Clc1ccc(-c2noc(CN3CCCC3)n2)cc1 | -0.3 | -78 | 113 | i | 1.1 | 3 | 97
C/C(Cl)=C\C[N+](C)(C)CC(=O)OCCc1ccccc1 | x | x | x | i | 1.2 | x | 101
CC1(CC(=O)Nc2ccccc2)NC(=S)N(c2ccccc2)N1 (stereo unspecified) | x | x | x | i | 0.87 | -5 | 93
COc1ccc(NC(=O)Cc2ccc(C)c(C)c2)cc1Cl | x | x | x | i | 0.97 | -3 | 105
O=C(c1ccc(Cl)cc1)c1ccc(OCC(O)CN2CCOCC2)cc1 (stereo unspecified) | -1.7 | -10 | 95 | i | 0.95 | 3 | 100
COC(=O)c1cccnc1-n1c(=O)c2cccnc2n(Cc2ccc(Cl)cc2)c1=O | -0.7 | -58 | 101 | i | 0.96 | -2 | 99
COc1ccc(NC(=O)c2ccccc2-c2ccccc2)c(C)c1 | x | x | x | i | 0.99 | -8 | 98
CCN(CC)C(=S)NC(=O)c1cccnc1 | x | 33 | 115 | i | 0.91 | -3 | 110
CCn1c(CSc2nc3ccccc3s2)nnc1SCC(N)=O | -2.3 | -6 | 125 | i | 1 | 0 | 107
COc1ccc(C2CC(c3ccc(Cl)cc3Cl)Nc3nc(N)nn32)cc1 (stereo unspecified) | -0.1 | x | x | i | 0.84 | 6 | 111
CC1CC(C)(C)NC(=S)N1CC(=O)NCc1ccc(Cl)cc1 (stereo unspecified) | 0.3 | -62 | 67 | i | 0.97 | 8 | 109
O=C(Cc1cccs1)Nc1ccc(S(=O)(=O)N2CCCCC2)cc1 | 0.5 | -6 | 60 | i | 0.97 | -1 | 96
Cc1ccc(CNC(=O)C2CC(c3ccccc3C(F)(F)F)=NO2)cc1 (stereo unspecified) | x | x | x | i | 0.77 | x | 106
O=C(COC(=O)c1ccc(S(=O)(=O)N2CCCC2)cc1)NCc1ccc(F)cc1 | -0.9 | -68 | 83 | i | 0.95 | 4 | 101
CCSCC1COC(c2cccn2Cc2ccc(C)cc2)=N1 (stereo unspecified) | -2.5 | -50 | 149 | i | 0.97 | -1 | 92
CCOC(=O)c1c(-c2ccccc2Cl)cn2ccccc12 | -2.8 | -17 | 50 | i | 0.98 | -5 | 79
CCN(CC)c1ccc(NC(=O)CCCCCN2C(=O)c3ccccc3C2=O)cc1 | 4.3 | 6 | 106 | i | 0.92 | 6 | 99
Cn1c(SCC(=O)N2CCCc3ccccc32)nnc1-c1c[nH]c2ccccc12 | -1.0 | -19 | 42 | i | 0.93 | -10 | 103
O=C(O)C[C@@H](O)C(=O)O | -0.5 | -43 | 120 | i | 1.1 | 3 | 100
CCCCNCc1cc(Cl)c(OCCC)c(OCC)c1 | -0.1 | x | x | i | 0.82 | 7 | 104
CCCCC1C(=O)CC[C@H]2[C@@H]1CC(=O)[C@@H]2C/C=C\CCCC(=O)O (stereo partly specified) | 0.9 | 52 | 132 | i | 0.76 | -3 | 109
Cc1cccc(Cl)c1NC(=S)N1CCN(c2ccc([N+](=O)[O-])cn2)CC1 | x | x | x | i | 0.98 | x | 87
O=C(CSc1nc2ncc(Br)cc2[nH]1)Nc1ccc2c(c1)OCO2 | -1.3 | -45 | 147 | i | 0.94 | 8 | 89
Cc1cc([N+](=O)[O-])nn1CC(=O)N1N=C(C(F)F)CC1(O)C(F)F (stereo unspecified) | -2.1 | -19 | 92 | i | 1 | -10 | 92
CC(C)C(=O)NCCSc1c[nH]c2ccccc12 | -3.6 | x | x | i | 0.89 | -7 | 98
CCOC(=O)CC(=O)Nc1nc2ccccc2s1 | -1.0 | x | x | i | 0.96 | -13 | 98
CC(CCCC(C)(C)O)NCc1cn[nH]c1-c1ccc2c(c1)OCO2 (stereo unspecified) | x | x | x | i | 0.93 | 2 | 100
Cc1ccc2occ(C3NC(C(=O)O)CS3)c(=O)c2c1 (stereo unspecified) | -0.8 | 7 | 130 | i | 1.1 | -1 | 105
O=C(Nc1cccc(F)c1)NC1(C(=O)N2CCOCC2)CCCCC1 | x | -50 | 85 | i | 0.96 | 7 | 104
O=C(O)C1=C[C@@H](c2ccc(Br)cc2)C[C@@H](OCc2ccc(CO)cc2)O1 | x | x | x | i | 0.8 | 0 | 93
CN(Cc1cccc2ccccc12)C(=O)c1cc(COc2c(F)cccc2F)on1 | x | x | x | i | 1.1 | 3 | 99
O=C(CCn1cccc1)Nc1ccc(F)cc1 | -3.0 | 13 | 87 | i | 0.84 | 5 | 105
CC(C)C(NC(=O)c1ccco1)C(=O)NCC(c1ccco1)N1CCCCC1 (stereo unspecified) | -0.8 | -23 | 120 | i | 0.98 | -11 | 100
